# Screens from PubChem.
# TRPML1 ag: human mucolipin-1 channel agonism; Q9GZU1; TRPML1-expressing cells, Ca2+ dye fluorescence, FDSS; host cell line not named in the record; reference of the full effect not given here; activation, % (no concentration beside the values); 410,000 tested, 0.12% active; in the data active = activation above about 50%; inconclusive = about 30% to 50%; inactive = below about 30%; further: 0% is about no effect; the text of the record puts the active cut at 80%
#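 Agonist activity was taken from a 110 s kinetic Ca2+ dye read on the FDSS after pinning compounds onto TRPML1-DL cells. The cells were seeded at 1,500/well with Tet inducer, incubated about 16 h, then dye-loaded at room temperature.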
# CtBP-E1A inh: inhibitors of CtBP/E1A interaction | activity change, % (test concentration not listed) | AlphaScreen GST-E1A/His-CtBP binding, 1536-well; hits give low values; control for the full effect not named in the record | 340,000 tested, 0.49% active; in the data active means activity change below about -65%; inconclusive means about -30% to -65%; inactive means above about -30%; further: on the % scale 0 is the no-effect control and ±100 the full control effect; compound concentration not given in the record
#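 Protein mix (5X: 125 nM each GST-E1A, His-CtBP) was incubated with pinned compound 2 h at 37 deg C in dark, in 50 mM Tris pH 8.0 buffer with 300 mM NaCl. Glutathione donor and nickel acceptor beads followed; AlphaScreen signal read after 1 h.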
# D2 ag: human D2 receptor agonism in beta-arrestin assay. activation, % (concentration not given with the values). DiscoveRx PathHunter D2 beta-arrestin, luminescence, 90 min; 100% = 57 uM dopamine signal. P14416. 360,000 tested, 0.084% active; in the data active = activation above about 40%; inconclusive = about 15% to 40%; inactive = below about 15%; further: compound concentration not given in the record; the text of the record calls up to 30% inactive
#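 Agonist mode: compounds alone added to overnight-plated D2 PathHunter cells for 90 min at 37 C, with 57 uM final dopamine (EC100) defining full response. Beta-arrestin recruitment detected by chemiluminescent reagent, read after 1 h at ambient temperature.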
# TRPML1 inh: blocks the human TRPML1 channel | Q9GZU1 | TRPML1-inducible cells, Ca2+ dye fluorescence, FDSS; hits give low values; inhibition of EC80 agonist-evoked calcium signal | activity change, negative = inhibition, % (no concentration beside the values) | 390,000 tested, 0.02% active | AID 624415; in the data active means activity change below about -50%; inconclusive means about -30% to -50%; inactive means above about -30%;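 further: stimulus is agonist 54-4 at its EC80 concentration; on the % scale 0 is the no-effect control and ±100 the full control effect; compound concentration not given in the record; the text of the record puts the active cut at -80%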
#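 Calcium fluorescence in TRPML1-DL cells induced overnight with Tet: a 110 s read after compound pin addition, then a 110 s antagonist read after challenge with 54-4 at 4 uM final (EC80).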
# PINK1 modulator: PINK1 expression modulation; Potency, µM (top dose mostly 76.6 µM), for the others: top-dose activation (PINK1 increase), actives largely listed as activators; 410,000 tested, 0.2% active; AID 624263; PINK1 immunofluorescence, high-content cytometry, 24 h; active = well fitted activation curve with a large enough effect; inconclusive = small, poorly fitted or top-dose-only effect; inactive = flat fitted curve, though single readings scatter; cell line not stated here;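 further: potency means the concentration at half of the fitted maximal effect; % of control where 0% means no effect; nearly all actives have a fitted effect of over 65% in size; a mitochondrial uncoupler was the plate control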
#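 Fluorescence from anti-PINK1 antibody, together with nuclear and cell stains, was scanned on a laser-scanning cytometer. Before staining, stable-line cells were incubated 24 hours with compounds at 5 concentrations; primary antibody 12 h at 10 degrees C.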
# Six1-Eya2 blk: Six1/Eya2 interaction inhibition; AID 651725; AlphaScreen GST-Six1/His-Eya2 binding, biochemical; hits give low values; control for the full effect not named in the record; 360,000 tested, 0.56% active; activity change, % (test concentration not listed); Q15475+O00167; in the data active = activity change below about -65%; inconclusive = about -30% to -65%; inactive = above about -30%; further: on the % scale 0 is the no-effect control and ±100 the full control effect; compound concentration not given in the record
# Target sequence (O00167 whole entry, looked up): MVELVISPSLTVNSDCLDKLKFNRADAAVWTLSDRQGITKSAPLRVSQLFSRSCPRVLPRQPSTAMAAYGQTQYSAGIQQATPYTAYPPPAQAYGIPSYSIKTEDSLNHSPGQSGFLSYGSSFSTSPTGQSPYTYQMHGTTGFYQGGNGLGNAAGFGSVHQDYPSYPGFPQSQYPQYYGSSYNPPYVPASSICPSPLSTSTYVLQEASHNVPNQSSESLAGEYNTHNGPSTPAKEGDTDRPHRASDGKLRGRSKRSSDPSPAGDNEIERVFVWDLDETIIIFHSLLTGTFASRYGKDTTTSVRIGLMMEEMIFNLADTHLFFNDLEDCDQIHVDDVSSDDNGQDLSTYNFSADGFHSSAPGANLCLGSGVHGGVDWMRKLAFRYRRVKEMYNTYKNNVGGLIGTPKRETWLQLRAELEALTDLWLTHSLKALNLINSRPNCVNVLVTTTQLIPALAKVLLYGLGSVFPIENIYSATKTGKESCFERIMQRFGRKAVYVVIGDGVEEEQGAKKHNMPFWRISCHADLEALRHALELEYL
# Target sequence (Q15475 whole entry, looked up): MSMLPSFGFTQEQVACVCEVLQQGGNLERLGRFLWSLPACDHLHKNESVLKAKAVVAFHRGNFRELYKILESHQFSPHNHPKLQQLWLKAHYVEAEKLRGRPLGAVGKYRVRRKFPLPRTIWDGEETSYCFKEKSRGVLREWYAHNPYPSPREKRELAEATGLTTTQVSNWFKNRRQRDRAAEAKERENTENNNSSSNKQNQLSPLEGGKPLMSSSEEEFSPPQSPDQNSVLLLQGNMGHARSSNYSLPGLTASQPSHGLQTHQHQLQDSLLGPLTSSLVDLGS
#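 AlphaScreen luminescence read after one hour at 37 °C in darkness. Pin-transferred compounds met GST-Six1 and His-Eya2 protein (5X stock 250 nM/500 nM) plus glutathione donor and Ni-chelate acceptor beads (5X, 50 ug/mL).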
# * marks the source's active call; other numbers are inactive results; ? = inconclusive; / = not tested or not shown; & = joins results of further samples; [ ] = remark or other dose. No enrichment for hits. About 1% of those tested had a hit in this group.
SMILES,TRPML1 ag,CtBP-E1A inh,D2 ag,TRPML1 inh,PINK1 modulator,Six1-Eya2 blk
CCNC(=O)c1cc(Br)ccc1Cl,-0.4,-3,-0.3,-11,-8.4%[38.3 µM],3
O=C(CSc1nnnn1C1CCCCC1)NCc1ccc2c(c1)OCO2,-0.6,11,-0.6,8,/,0
Cc1ccc(Cn2cc(S(=O)(=O)c3ccc(C)cc3)c(=O)c3cc(F)c(N4CCCC4)cc32)cc1,-1.0,/,/,4,-1.3%,/
Cc1cc(C)cc(-n2c3nc4ccccc4nc3c3c(=O)n(Cc4ccco4)cnc32)c1,0.5,-2,-0.1,26,6.4%,6
COc1ccc(/C=C/C(=O)Nc2cccc(S(=O)(=O)N3CCCC3)c2)cc1OC,0.9,?,2.4,2,0.0%,?
CCc1nnc(NC(=O)c2ccc3c(=O)n4c(nc3c2)CCCCC4)s1,-0.5,-3,-0.6,4,-1.6%,5
O=C(OCCN1C(=O)c2cccc3c(N4CCOCC4)ccc(c23)C1=O)c1cccc(Cl)c1,19,59,1.8,-6,4.9%,56
COc1ccc(C(=O)N/C(=C/c2ccco2)C(=O)NCc2ccco2)cc1,-0.8,0,-3.2,8,4.0%,-1
O=c1[nH]nc(N=Nc2c(O)[nH]c3ccc(F)cc23)c(=O)[nH]1,/,-71*,-4.0,/,1.8%,-80*
Cc1cnc([N+](=O)[O-])n1CCOC(=O)NC(=O)c1ccc(F)cc1,0.7,12,-1.3,9,0.5%,5
C=CCNc1nc(Nc2ccc([N+](=O)[O-])cc2)nc(N2CCCC2)n1,2.2,9,3.4,7,0.1%,-1
COc1ccc(/C=C/C(=O)NC(=S)N2CCOCC2)cc1,1.1,-2,-1.1,-25,2.2%,5
CN1CCC(OC(=O)c2ccc(Cl)cc2Cl)CC1,1.3,/,-5.3,8,0.0%,1
COC(=O)c1sc(NC(=O)C(C)c2ccccc2)nc1C (stereo unspecified),2.2,15,-1.6,23,5.8%,2
O=C(Nc1ccc(F)c(Cl)c1)C1CCCN(C2=NS(=O)(=O)c3ccccc32)C1 (stereo unspecified),-0.3,/,-1.6,3,6.2%,?
COc1ccccc1NC(=S)NCCN1CCOCC1,2.9,9,-5.4,-1,-0.6%,5
CN(C)CCNC(=O)c1nn(C)c2c1CCc1ccccc1-2,/,3,-5.2,/,-0.8%,1
CCCC(=O)N(CCN1CCOCC1)c1nc2c(C)cccc2s1,0.1,-3,-0.6,18,0.1%,0
c1ccc2c(c1)oc1c(NCCCn3ccnc3)ncnc12,-0.7,-1,-2.2,-6,0.8%,-12
C=CCN(C(=O)CSc1nc2[nH]ncc2c(=O)n1-c1ccccc1OC)c1ccccc1,1.2,-2,-5.4,-10,-4.5%[38.3 µM],-6
COc1cc(C(c2sc3nc(C)nn3c2O)N2CC(C)CC(C)C2)cc(OC)c1OC (stereo unspecified),-0.2,6,-1.0,4,2.5%,-1
CC(CN1CCN(Cc2ccccc2)CC1)c1ccccc1 (stereo unspecified),-0.4,/,-3.8,19,-1.4%,8
COc1cccc(CSc2nc3n(n2)C(c2ccc(C(=O)O)cc2)C(C(=O)Nc2ccccc2)=C(C)N3)c1 (stereo unspecified),0.8,/,/,-16,1.5%,/
COc1ccc(/C=N/NC(=O)c2sccc2OCc2ccc(F)cc2)cc1OC,1.8,8,-2.4,16,6.3%,-17
O=Nc1c2cc3ccccc3[nH]c-2c2ccccc12,-0.6,-16,0.8,0,0.8%,-20

# (next part)
SMILES,TRPML1 ag,CtBP-E1A inh,D2 ag,TRPML1 inh,PINK1 modulator,Six1-Eya2 blk
COc1ccc2c(c1)C=C(C(=O)OCc1cccnc1)CO2,-0.4,1,-0.2,-6,0.0%,1
Cc1ccc(-n2c(=O)c3c(c4cc(C)ccc4n3C)n(Cc3ccc(F)cc3)c2=O)cc1,0.9,/,/,-12,1.1%,/
Cc1ccc(C(=O)n2c(-c3ccccc3)cnc2SCC(=O)Nc2ccccc2)cc1,-0.1,-14,-0.4,6,4.3%,-17
Cc1csc(NC(=O)C(CC(C)C)NS(=O)(=O)c2ccc3c(c2)oc(=O)n3C)n1 (stereo unspecified),-0.7,4,-1.1,-16,4.2%,-19
O=C(NCc1cccnc1)C(=O)NCC1OCCN1S(=O)(=O)c1ccc(Cl)cc1 (stereo unspecified),0.0,5,-7.8,-4,-0.6%,1
COC(=O)Oc1nsnc1N1CCOCC1,0.0,8,-4.3,-14,/,4
O=C(Nc1ccn(CCCNCCc2ccccn2)c(=O)n1)OCc1ccccc1,-0.6,-4,-7.3,-3,1.3%,-5
NC(N)=NC(N)=Nc1ccccc1,-0.2,-21,-4.8,-6,0.8%&0.2%,13
N#CCC1c2ccccc2CCN1C(=O)Nc1cccc(C(F)(F)F)c1 (stereo unspecified),0.7,-4,-1.5,-1,2.4%[38.3 µM],-10
CN(CC(=O)Nc1ccc(N2CCOCC2)cc1)CC(=O)Nc1ccc(N2CCOCC2)cc1,0.1,/,-7.5,-25,1.1%,17
O=C(COc1ccccc1Cl)Nc1ccc(N2CCN(C(=O)c3ccccc3)CC2)cc1,0.0,-2,9.3,-20,5.5%,-8
CCC1(CC)NC(=O)N(CC(=O)Nc2cccc3ccccc23)C1=O,-0.2,18,-1.6,8,1.1%,1
O=C(CN1CCOCC1)Nc1ccc(Cl)cc1,-0.9,/,2.2,-2,0.7%,1
Cc1ccccc1OC(C)C(=O)Nc1ccc(S(=O)(=O)N2CCCC2)cc1 (stereo unspecified),-0.5,0,-3.5,2,1.4%,-11
Cc1occc1C(=O)Nc1cccc(Cl)c1Cl,-0.4,7,-2.5,14,-0.8%,4
COC(=O)C1=C(C)NC(=O)NC1c1ccc(-c2ccccc2Cl)o1 (stereo unspecified),0.0,/,5.2,1,17%,2
Cc1cc(C(=O)Nc2ccccc2N2CCOCC2)c(C)o1,2.4,0,0.1,0,-0.2%,-6
O=c1c2ccccc2sc2ccc(C#CC3(O)CCCCC3)cc12,0.6,5,-0.5,24,7.2%,7
O=C(NCc1ccccc1)C1CCC(CNS(=O)(=O)c2ccc(Br)s2)CC1 (stereo unspecified),1.8,/,/,-8,3.4%,/
CCOC(=O)c1c(C)c(-c2ccccc2)n(CC(=O)NCc2cccc(OC)c2)c1C,1.5,/,/,24,-0.6%,/
NC(=O)C1CCN(S(=O)(=O)c2ccc3c(c2)OCCO3)CC1,-0.6,0,0.4,1,-2.6%,16
Cc1ccc(Cc2c(-c3ccc(F)cc3)nc3cc(C)ccn23)cc1,2.0,1,-5.8,42,2.4%,-4
CCn1c(=O)n(Cc2ccco2)c(=N)c2c3c(sc21)COC(C)(C)C3,0.4,-2,0.7,-12,-0.6%,-4
O=C(NCCc1ccccc1Cl)c1ccc2c(=O)n(-c3ccccc3)c(=O)[nH]c2c1,0.3,/,/,7,8.6%,/
CCOc1ccc(N(C)c2ccc(/C=C3/SC(=S)NC3=O)cc2)cc1,?,-15,-4.5,27,13%,-24

# Next part:
SMILES,TRPML1 ag,CtBP-E1A inh,D2 ag,TRPML1 inh,PINK1 modulator,Six1-Eya2 blk
CN(Cc1cccc2ncccc12)C(=O)CC1C(=O)NCCN1Cc1ccc(F)cc1 (stereo unspecified),-0.3,4,-0.9,4,-0.1%,-11
CC(C)CN(C(=O)Cn1ccccc1=O)C1CCS(=O)(=O)C1 (stereo unspecified),3.5,2,-0.7,-4,1.8%,0
Cc1c(Br)c([N+](=O)[O-])nn1CC(=O)Nc1ccc(C(N)=O)cc1,-0.1,/,-5.2,-7,-0.6%,-7
Cc1ccc(S(=O)(=O)N2CCOC2C(Cl)(Cl)Cl)cc1 (stereo unspecified),/,39,2.0,/,0.7%,6
CCOC(=O)c1ccc(-n2c(N)c(C(=O)NCc3ccco3)sc2=S)cc1,1.2,-14,-4.3,1,-7.4%[38.3 µM],-27
CCOC(=O)c1cc(-c2ccc(C)cc2)n(CCC(=O)Nc2ccc(OC)c(OC)c2)c1C,0.4,/,/,-10,-0.3%,/
O=C(COc1coc(CN2CCc3ccccc3C2)cc1=O)Nc1cccc([N+](=O)[O-])c1,-0.2,-5,3.2,-15,1.6%,2
CN1CCN(S(=O)(=O)c2ccc(Oc3ccc(Br)cc3F)nc2)CC1,1.1,-21,-1.4,1,2.2%,-1
CCOc1ccc(NC(=O)CSc2nnc(CCNC(=O)c3ccc(OC)cc3)n2CC)cc1,-0.6,4,-1.9,-8,2.0%,2
COc1ccc(N(CC(=O)NCCC2=CCCCC2)S(=O)(=O)c2ccccc2)c(OC)c1,0.6,10,-3.6,-10,-0.5%,8
Cc1ccccc1OCC(=O)Nc1ccc2c(c1)OCO2,5.5,5,2.3,11,-1.7%,0
CCn1ncc(C(=O)Nc2cc(C)on2)c1C,-0.2,-1,-2.3,4,6.2%[38.3 µM],3
O=C(Nc1ccc(F)cc1)c1cc(S(=O)(=O)N2CCOCC2)cs1,-0.2,2,-1.9,3,-0.2%,-1
CN(C)N1C(N)=C(C#N)C(c2ccc(F)cc2)C2=C1CC(C)(C)CC2=O (stereo unspecified),0.7,5,6.7,20,6.6%,1
CCN(C(=O)CSc1nc2ccccc2c2nc(CCn3c(C)nc4ccccc43)nn12)c1cccc(C)c1,0.4,/,/,6,5.1%,/
O=C(O)c1cccnc1Br,0.0,/,-2.2,-6,-0.3%,11
O=C(Nc1ccc(Oc2cccnc2)cc1)C1CCN(Cc2cccc(Cl)c2)CC1,1.0,-16,-3.0,14,-0.8%,-7
COc1ccc(NC2=CC(=O)CC(c3ccccc3)C2)cc1 (stereo unspecified),-0.1,-1,-1.1,-16,3.7%,2
Cc1ccc(C(=O)NCCN2CCC(n3c(=O)[nH]c4ccccc43)CC2)cc1F,-0.7,-1,/,/,1.3%,11
COc1cccc(NC(=S)N/N=C2\CC3CCC2(C)C3(C)C)c1 (stereo unspecified),2.9,21,-17,39,11%,-22
O=C(CCNS(=O)(=O)c1ccccc1)N1CCN(c2ccccc2F)CC1,0.3,-3,-4.5,3,3.7%,3
CCCCn1c(-c2csc(C(C)C)c2)n[nH]c1=S,1.3,-6,-0.1,37,1.1%,10
Cn1c(Cl)c(C(=O)Nc2ccc(Cl)cc2)c2ccccc21,0.0,-1,-0.6,50,12%,3
COC(=O)C(C(=O)OC)c1ccc(N)cc1,0.0,-1,-1.8,6,1.5%,6
CC1(C)CC(=O)c2cn3c(nc2C1)nc1ccccc13,2.6,-3,1.1,6,0.8%,-2

# Sorted by length of the SMILES (high to low): part of the list above.
SMILES,TRPML1 ag,CtBP-E1A inh,D2 ag,TRPML1 inh,PINK1 modulator,Six1-Eya2 blk
CCN(C(=O)CSc1nc2ccccc2c2nc(CCn3c(C)nc4ccccc43)nn12)c1cccc(C)c1,0.4,/,/,6,5.1%,/
O=C(Nc1ccc(Oc2cccnc2)cc1)C1CCN(Cc2cccc(Cl)c2)CC1,1.0,-16,-3.0,14,-0.8%,-7
CN1CCN(S(=O)(=O)c2ccc(Oc3ccc(Br)cc3F)nc2)CC1,1.1,-21,-1.4,1,2.2%,-1
Cc1ccc(S(=O)(=O)N2CCOC2C(Cl)(Cl)Cl)cc1 (stereo unspecified),/,39,2.0,/,0.7%,6
CC1(C)CC(=O)c2cn3c(nc2C1)nc1ccccc13,2.6,-3,1.1,6,0.8%,-2
